From PubChem BioAssay
Rce1 inh: blocks yeast Ras-converting enzyme; calls only; actives 0.27% (n = 290,000); Q03530; yeast membranes, quenched prenylated peptide cleavage fluorescence;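 active = fall in fluorescence gain of 50% or more versus controls, with final raw signal at or below 3038400; inconclusive = same 50% fall but final raw signal above 3038400; inactive = fall in fluorescence gain under 50%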;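 also: plate controls were neutral control wells for no effect and wells lacking membranes for full effect; tested at 10 µM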
Target sequence (Q03530 whole entry, looked up): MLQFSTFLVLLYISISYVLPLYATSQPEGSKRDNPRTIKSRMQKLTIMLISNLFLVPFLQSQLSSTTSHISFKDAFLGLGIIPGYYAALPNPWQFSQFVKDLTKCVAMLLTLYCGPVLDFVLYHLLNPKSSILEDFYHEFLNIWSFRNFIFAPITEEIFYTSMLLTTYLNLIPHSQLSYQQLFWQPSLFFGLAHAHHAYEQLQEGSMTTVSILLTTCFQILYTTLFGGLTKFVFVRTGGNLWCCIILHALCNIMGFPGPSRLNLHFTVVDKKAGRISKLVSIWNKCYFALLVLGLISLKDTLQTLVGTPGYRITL
CSC inhib: blocks cancer stem cells; cancer stem cell-like cells viability, luminescence; inhibition, % at 7.5 µM; actives 1.1% (n = 300,000); AID 2717;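 active = mean at 75% or more and at least half the replicates too; inconclusive = mean and replicates disagree; tested in HMLE shEcad cells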;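 also: 0% = median of negative and 100% = median of positive control wells; the first replicate is given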
UUG fidelity: yeast start codon fidelity modulation; S. cerevisiae UUG-firefly luciferase reporter, luminescence/redox ratio; activity score, % at 18.7 µM; actives 0.13% (n = 350,000); AID 602363;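 active = replicate mean at a twofold rise or more, about +100% in these data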;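 also: firefly luciferase made from a UUG start codon reports start codon fidelity; reporter light over untreated wells divided by growth signal over untreated wells; some hits fall short of that in this replicate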
eIF4H inh: inhibitors of RNA binding by human eIF4H. actives 0.94% (n = 290,000). Q15056. inhibition, % at 35 µM. eIF4H fluorescence polarization binding assay;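 active = 50% or more with normal probe brightness, or confirmed in later tests; inconclusive = above 50% with abnormal brightness, or retests that disagree; inactive = below 50% or failed in later tests; about a fifth of its hits are not listed in these tables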;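 also: calls also rest on retests at 20 µM and on dose response follow-up; 0% = protein and probe with vehicle and 100% = probe without protein; strong numbers were not always called active; many hits fall short of the cut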
HIV Env fusion: HIV envelope-mediated fusion inhibition; HeLa-JRFL Env/CEM21 cell fusion, luciferase; inhibition, % at 12.3 µM; actives 1.1% (n = 360,000); AID 651610;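 active = mean replicate inhibition score of at least 50 and every replicate individually at or above 50; inconclusive = only one of the two criteria met; inactive = mean below 50 and not all replicates reaching 50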;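 also: 0% = plate neutral controls and 100% = maraviroc near 300 nM; one replicate is shown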
PABP FP inh: PABP-poly(A) binding inhibition; P11940; PABP-poly(A) RNA binding, fluorescence polarization; inhibition, % at 35 µM; actives 1% (n = 290,000);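 active = 50% or more with normal probe brightness, or confirmed in later tests; inconclusive = above 50% with abnormal brightness, or retests that disagree; inactive = below 50% or failed in later tests; about a fifth of its hits are not listed in these tables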;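 also: calls also rest on retests at 20 µM and on dose response follow-up; controls were probe without protein and protein plus probe with vehicle; some compounds called inactive have numbers as strong as hits; many hits fall short of the cut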
Target sequence (P11940 whole entry, looked up): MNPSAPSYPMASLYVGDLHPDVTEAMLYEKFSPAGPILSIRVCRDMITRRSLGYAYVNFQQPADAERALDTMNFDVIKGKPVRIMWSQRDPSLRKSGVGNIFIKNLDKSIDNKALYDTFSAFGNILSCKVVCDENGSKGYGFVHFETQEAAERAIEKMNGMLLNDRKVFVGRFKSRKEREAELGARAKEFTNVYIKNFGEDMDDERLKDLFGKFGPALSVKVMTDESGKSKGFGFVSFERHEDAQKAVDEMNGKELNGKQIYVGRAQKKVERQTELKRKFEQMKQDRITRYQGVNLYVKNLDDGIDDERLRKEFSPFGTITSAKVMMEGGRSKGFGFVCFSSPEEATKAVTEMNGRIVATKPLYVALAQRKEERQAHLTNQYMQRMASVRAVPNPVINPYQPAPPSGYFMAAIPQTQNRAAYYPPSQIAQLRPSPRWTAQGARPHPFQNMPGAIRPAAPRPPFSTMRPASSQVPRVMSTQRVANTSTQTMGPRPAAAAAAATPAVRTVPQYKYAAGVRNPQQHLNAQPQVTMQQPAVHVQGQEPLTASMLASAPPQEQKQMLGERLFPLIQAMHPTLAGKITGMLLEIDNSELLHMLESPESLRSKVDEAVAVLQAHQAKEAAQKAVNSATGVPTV
MT1-MMP act inh: MT1-MMP (human) activation inhibition. HT1080 RFP-PRO-GFP cells, GFP/RFP ratio fluorescence, overnight; percent of plate control window, DMSO zero. actives 0.061% (n = 360,000). GFP/RFP ratio change, % at 20 µM. AID 651647. P50281;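 active = GFP/RFP ratio change of at least 30% with cell ATP level not reduced by more than half and red fluorescence within 50% of control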; also: strong numbers were not always called active
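Assay system – RFP-PRO-GFP reporter HT1080 cells · Compound dosing – single dose of 20 µM compound, 1% DMSO final · Incubation – overnight compound exposure at 37 °C · Measure – GFP/RFP fluorescence ratio · Benchmarks – DMSO wells and RFP-L50D-GFP cells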
eIF4H inh retest: also measured in eIF4H inh; calls as there; inhibition, %; compound at 20 µM; confirmation average;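 mean of two retest wells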
PABP FP inh retest: also measured in PABP FP inh; calls as there; inhibition, %; compound at 20 µM; confirmation repeats;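 mean of two retest wells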
MT1-MMP act inh RFP: recorded beside MT1-MMP act inh, whose call it bears; RFP signal change, %; measured here: RFP expression control read;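 0 = vehicle wells; hits needed this value within 50% of zero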
* = called active by the depositor; i = inactive; u = inconclusive; x = no result given.

SMILES	Rce1 inh	CSC inhib	UUG fidelity	eIF4H inh	HIV Env fusion	PABP FP inh	MT1-MMP act inh	MT1-MMP act inh RFP	others
Cc1ccc(SC(C)C(=O)Nc2ccccc2C(=O)N2CCOCC2)cc1 (centres undefined)	i	8	0	6	x	4	-3	1
COc1ccc(C(=O)NC(C(=O)NCC2CCCO2)C(C)C)cc1 (centres undefined)	i	-4	11	-5	9	-20	4	4
CC(C)N1CCCC(C)(C(=O)Nc2ccc3c(c2)OCO3)C1 (centres undefined)	x	x	-9	x	33	x	2	5
Cc1c(-c2ccc(Br)cc2)[n+](=O)c2c(n1[O-])CCCC2	i	-7	-12	-7	2	-10	3	2
COC(=O)C1CCN(c2cc(=O)n(C3CCCCC3)c(=O)[nH]2)CC1	i	20	x	1	x	10	3	3
COc1ccc(-c2csc(NC(=O)c3ccc(N4C(=O)CCC4=O)cc3)n2)cc1	i	-18	-9	-4	20	44	2	-5
O=S(=O)(c1cccs1)N1CCC2(CC1)OCCO2	i	-8	-2	-11	-11	1	-2	3
COc1ccc(S(=O)(=O)Nc2ccc(S(=O)(=O)N3CCOCC3)cc2)cc1	i	7	-12	12	-47	5	2	1
CC(C)c1ccc(N(CC(=O)NCC2CCCO2)C(=O)Cn2nnc(-c3cccs3)n2)cc1 (centres undefined)	i	-4	7	-8	10	5	-4	-1
Cc1ccn2c(=O)nc(SCC(=O)NCCc3ccccc3)nc2c1	i	-3	-4	x	-1	x	-2	7
CC(=O)CSc1nnc(-c2ccc(S(=O)(=O)N3CCC(C)CC3)cc2)o1	i	-1	-13	x	-10	x	4	2
Cc1ccc2c(c1)N(C(=O)CCC(=O)N1CCCCC1)CCO2	i	2	-7	-6	-5	-1	3	2
O=C(CN1CCCCCC1)Nc1ccc([N+](=O)[O-])cc1Br	i	x	-11	-4	14	14	0	2
OCCN1CCOCCN(CCO)CCOCC1	x	2	-9	-3	x	27	0	1
CCn1c(SCC(=O)N2CCC(C)CC2)nc2c([nH]c3ccccc32)c1=O	x	x	-3	x	20	x	-3	-4
COc1ccc(NC(=S)N2CCN(C(=O)C3CCCO3)CC2)cc1 (centres undefined)	i	-8	-9	11	-10	0	2	4
NNc1nc(-c2ccccc2)cc(-c2ccccc2O)n1	i	31	-7	8	x	7	8	2
CCCC(=O)Oc1ccc(C2NC(=O)c3ccccc3O2)cc1 (centres undefined)	i	-7	-15	-5	-5	7	0	-1
C=CCNC(=S)Nc1ccccc1	i	10	4	-10	x	1	-1	5
O=C(Nc1cccc(Cl)c1)ON1CCCCC1	x	x	3	x	14	x	1	-1
Cc1cc(F)ccc1NC(=S)NCCc1ccccc1	i	5	-25	-1	-7	-2	3	3
O=S1(=O)C[C@@H](N2CCN(c3ccccc3)CC2)[C@H](COCc2ccccc2)N1	x	x	6	x	4	x	1	-1
Cc1ccc(NC(=O)CCC(=O)Nc2ccc(C)cc2)cc1	i	-16	-23	3	-4	6	0	1
ON=Cc1ccnc2ccccc12	x	x	16	x	25	x	-2	0
CCN(CC)C(=O)COC(=O)c1cc(-c2ccc(OC)cc2)nc2ccccc12	i	26	-12	13	x	3	5	-10
Cc1scc(C(=O)N2CCN(c3ccc(Cl)cc3)CC2)c1C	i	3	18	4	-10	-10	3	-5
Cc1ccc(C)c(S(=O)(=O)N2CCN(C(=O)CNC(=O)c3ccc4ccccc4c3)CC2)c1	i	4	x	x	25	x	1	-12
COc1cc2[nH]c(=O)n(CCCCCC(=O)NC3CCCC3)c(=O)c2cc1OC	x	-7	-11	-10	16	2	1	2
Cn1c(=O)c2c(nc(CN3CCOCC3)n2CCCO)n(C)c1=O	i	-6	-3	-4	0	-7	3	2
Cc1cc(C)n(C(=O)c2ccc([N+](=O)[O-])c(Cl)c2)n1	i	-7	x	-11	14	-9	6	6
COc1ccc(CCn2c(=O)c3cccnc3n(Cc3ccc([N+](=O)[O-])cc3)c2=O)cc1OC	x	x	x	1	11	0	-2	2
O=C(NCC1(c2ccccc2)CCCC1)c1ccccc1Br	i	5	x	4	4	-3	-1	-4
C=CCNC(=O)C(=O)NCC1CCCN1S(=O)(=O)c1cccs1 (centres undefined)	i	-9	-2	x	-9	x	2	1
CCc1nc2c(OCC3COc4ccccc4O3)cccn2c1N(C)C(=O)c1cccs1 (centres undefined)	x	x	9	x	u	x	2	-4
CCn1c(SCC(=O)NC2=NCCS2)nnc1C(C)NC(=O)c1ccc(Cl)cc1 (centres undefined)	i	-5	-9	-5	-8	10	3	7
O=C1c2ccccc2C(=O)N1c1cccc(-c2csc(Nc3ccc4c(c3)OCO4)n2)c1	x	-9	x	4	x	-4	x	x
O=C(/C=C\NCC(=O)c1ccccc1)c1ccc(F)cc1	i	0	x	-7	x	4	-10	0
CCOCCn1c(SCc2ccc(C)cc2)nc2c1c(=O)[nH]c(=O)n2C	i	-7	-4	10	-31	4	2	0
CCOc1ccc2nc(N3CCCC(C(=O)NCCCN4CC(C)CC(C)C4)C3)sc2c1 (centres undefined)	i	-7	-6	-8	3	13	-1	4
Cc1ccc(-n2cccn2)c(CN2CCCC(C(=O)c3sccc3C)C2)c1 (centres undefined)	i	-4	x	2	7	-8	-2	-4
CSc1ccc(CNC(=O)CCn2ccc3cc(S(=O)(=O)N4CCCC4)ccc32)cc1	i	-11	-8	-10	7	-6	3	0
COc1ccc(NC(=O)c2sc3nc(N4CCOCC4)c4c(c3c2N)CCCC4)c(OC)c1	i	x	0	0	-12	-6	-1	-1
CCc1c(C)nc2ncnn2c1N1CCC(C(=O)NCc2ccc3c(c2)OCO3)CC1	i	x	-5	-4	36	-4	-3	-3
O=C(CN1CCC(n2nnc3cc(F)ccc32)CC1)NCc1ccco1	i	-11	-6	7	27	7	-8	-11
c1csc(-c2nnc(-c3ccc(N4CCOCC4)cc3)o2)c1	i	-4	-16	-4	-251	-9	5	-1
Cc1c(C)c2ccc(Oc3ccc([N+](=O)[O-])cc3C(F)(F)F)c(C)c2oc1=O	i	-21	-16	-7	x	1	3	-2
O=C(COC(=O)c1cc[n+]([O-])cc1)Nc1ccc(Cl)cc1C(F)(F)F	x	-3	-23	x	x	x	-2	6
CC1(C(=O)O)CCCN1C(=O)c1ccccc1OC(F)(F)F (centres undefined)	x	x	-12	x	-4	x	2	2
Cc1ccc(S(=O)(=O)Nc2nc(C)c(C)s2)cc1	i	17	12	3	10	-6	1	-1
Cc1cc(C(=O)CSc2nnc(-c3ccc(F)cc3)o2)c(C)n1CC1COc2ccccc2O1 (centres undefined)	x	64	x	15	x	6	4	2
COc1ccc(NC(=O)CSc2nnc(-c3ccccn3)n2N)cc1Cl	i	-13	-6	1	-37	-2	3	1
O=C(NCCCN1CCCC1)c1[nH]c(C(F)(F)F)nc1-c1ccccc1	x	x	-9	x	-8	x	-2	1
CCN(C[C@H]1N[C@@](Cc2ccccc2)(C(=O)OC)[C@H]2C(=O)N(Cc3ccccc3)C(=O)[C@@H]12)C(=O)Nc1ccc(C(F)(F)F)cc1	x	72	2	x	28	x	-21	-33
Cc1cccc(S(=O)(=O)c2c(N)n(Cc3ccco3)c3nc4ccccc4nc23)c1	u	4	18	u	26	u	-132	17
CCOC(=O)c1ccc(NC(=O)CCNS(=O)(=O)c2cccs2)cc1	i	8	6	-7	24	5	-6	0
COc1cc(-c2nc3oc4ccccc4c(=O)c3c(=O)n2Cc2ccco2)cc(OC)c1OC	i	x	8	-9	92*	-9	3	0
Cc1ccc(CNC(=O)C2CCCN(S(=O)(=O)c3c(C)n[nH]c3C)C2)cc1 (centres undefined)	i	-3	-1	2	x	7	4	-2
Cc1cc(OCCN2CCOCC2)nc2ccccc12	i	10	-14	-2	x	-5	4	7
O=C(CN(Cc1ccccc1Cl)C(=O)CCC(=O)Nc1nccs1)NCC1CCCO1 (centres undefined)	i	x	-2	89	-8	-9	-10	0	eIF4H inh retest=-2;PABP FP inh retest=-7
CC(C)Cn1cnc2c1c(=O)n(CC(=O)N(C)C)c(=O)n2Cc1ccccc1	i	x	x	-5	8	-4	-2	4
The list continues.
SMILES	Rce1 inh	CSC inhib	UUG fidelity	eIF4H inh	HIV Env fusion	PABP FP inh	MT1-MMP act inh	MT1-MMP act inh RFP	others
Cc1c(C(=O)N2CCCCC2)c(S(=O)(=O)N2c3ccccc3CC2C)c(C)n1C (centres undefined)	i	-8	-6	-13	-4	-2	2	5
O=C(COC(=O)c1ccc(O)cc1)Nc1ccccc1[N+](=O)[O-]	x	-9	x	-3	-50	-7	2	2
Cc1ccc(CCCOC(=O)C[N+]2(C)CCOCC2)cc1	i	-5	-8	-10	14	49	-1	1
COC(=O)c1onc(-c2c(OC)cc(OC)cc2OC)c1C(=O)OC	i	-8	x	-6	-8	-4	1	2
CCc1nc(C)ccc1OCC(=O)O	i	-6	-13	-8	x	4	0	2
O=S(=O)(c1ccc2ccccc2c1)N1CCCCCC1	x	8	x	-15	14	-7	-3	-2
S=C(c1ccc(-c2ccc(Cl)cc2Cl)o1)N1CCCCC1	i	-3	-19	5	-333	-1	-1	-8
O=C1c2ccccc2C(=O)N1CCc1csc(NNc2nc(CCN3C(=O)c4ccccc4C3=O)cs2)n1	x	-4	-8	95	x	0	7	4	eIF4H inh retest=-4;PABP FP inh retest=10
CC1(C)CC(=O)C2=C(C1)NC1=C(C(=O)c3ccccc31)C2c1ccc(Cl)cc1 (centres undefined)	i	44	x	6	x	32	-5	-16
CC(C)N1CCCC(C)(C(=O)Nc2nccc3ccccc23)C1 (centres undefined)	x	x	-14	x	8	x	2	9
Cc1nc(NC(=O)/C=C/c2ccccc2)n[nH]1	i	45	-27	3	-6	-6	-5	-2
CC(=O)NC(c1cc(Cl)c2cccnc2c1O)C(C)C (centres undefined)	x	42	-42	x	6	x	3	0
Cc1ccc2nc(N/C(=N/S(=O)(=O)c3cccs3)c3ccccc3Cl)sc2c1	i	15	-12	104	6	-18	-1	3	eIF4H inh retest=-6;PABP FP inh retest=0
CCOc1ccc(C(C)C)cc1S(=O)(=O)N1CCOCC1	i	4	x	10	-26	-7	-2	0
COCCNC(=O)c1c[nH]c2ccc(S(=O)(=O)N3CCc4ccccc43)cc2c1=O	i	84*	x	-13	32	35	-15	-16
Cc1cc(C)c(C#N)c(SCC(=O)N(C)C2CCCCC2)n1	i	8	3	-8	28	2	-3	-4
CCOC(=O)CN1C(=O)S/C(=C\c2ccc(-c3cccc(C(=O)O)c3C)o2)C1=O	i	-11	-8	x	-17	x	-1	2
COc1ccccc1/C=C1\S/C(=N/NC(=O)c2cccc(Br)c2)NC1=O	i	114*	-36	7	-7	-4	-1	1
CCN1CCCC1CNS(=O)(=O)c1ccc(C(=O)Nc2ccccc2)cc1 (centres undefined)	i	x	-7	-2	x	-6	4	4
CCOCCCn1cnc2c(c1=O)c1nc3ccccc3nc1n2-c1ccc(C)cc1	i	-5	-16	-10	0	-11	-1	0
COc1ccc(C2CC(=O)Nc3ccccc3S2(=O)=O)cc1OC (centres undefined)	x	-35	-8	14	x	21	0	2

Nothing new here: entries from further up.
SMILES	Rce1 inh	CSC inhib	UUG fidelity	eIF4H inh	HIV Env fusion	PABP FP inh	MT1-MMP act inh	MT1-MMP act inh RFP	others
CCOCCCn1cnc2c(c1=O)c1nc3ccccc3nc1n2-c1ccc(C)cc1	i	-5	-16	-10	0	-11	-1	0
COc1ccc(C2CC(=O)Nc3ccccc3S2(=O)=O)cc1OC (centres undefined)	x	-35	-8	14	x	21	0	2
